# Rango release inh – prevents RanGTP from dissociating the Rango-importin beta complex; AID 540253; O95149+P62826; Potency, µM (series often up to 46.1 µM), for inactives: at the highest dose activity change, negative = inhibition; Biochemical FRET Rango-importin beta, RanGTP-induced dissociation; hit rate 0.071% among 340,000; active means falling FRET ratio curve, often poorly fitted, with flat reads before Ran was added; inconclusive means other falling curves, or compound fluorescence or quenching; inactive means flat or rising ratio curve;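 further: potency means the concentration at half of the fitted maximal effect; % of control where 0% means no effect; nearly all actives have a fitted effect of over 45% in size; -100% = wells without RanGTP and RCC1; the record marks most hits as doubtful in a second field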
#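 Rango (0.1 uM)–importin beta (0.25 uM) complex; RanGTP-RCC1 trigger; 45 min RT; CFP/YFP FRET read.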
# miR-21 FLuc – raises the signal of a miR-21 reporter | Potency, µM (titrated, usually from 38.3 µM), for the others: at the top dose reporter change, positive = more light | 340,000 tested, under 10 active | HeLa miR-21 FLuc reporter, luciferase, 48 h; active = well fitted rising curve with a large enough effect; inconclusive = small, poorly fitted or top-dose-only effect; inactive = no such curve, though single readings can be large or run the other way;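 further: % of control where 0% means no effect; miR-21 action dims this reporter so a rising signal means less miR-21 action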
#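 HeLa cells stably expressing CMV-driven firefly luciferase with a downstream miR-21 binding sequence, endogenously expressing miR-21, were treated with titrations (up to about 40uM final) for 48 hours at 37 degree Celsius. Luciferase luminescence was read after lysis.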
# Rango-impB inh – prevents formation of the Rango-importin beta complex; Potency, µM (top dose mostly 92.2 µM), for inactives: at the highest dose inhibition of complex formation; Rango CFP/YFP FRET sensor + importin beta, 45 min; hit rate 0.031% among 340,000; active = rising FRET ratio curve, often small or poorly fitted; inconclusive = mostly compound fluorescence or quenching in the first reads; inactive = flat curves in all reads;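 further: potency means the concentration at half of the fitted maximal effect; 0% = DMSO wells and 100% = buffer wells lacking importin beta; nearly all actives have a fitted effect of over 15% in size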
#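 FRET biosensor Rango (snurportin 1 IBB between N-terminal EYFP and C-terminal Cerulean), 50 nM in PBS/1 mM DTT/0.02% Tween-20/0.1% BSA, preincubated 5 min RT with compound; 0.125 microM importin beta added, 45 min RT, CFP/YFP FRET ratio read.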
# GLA inh pH 4.5 – blocks human alpha-galactosidase A at pH 4.5; purified enzyme, 4-MU-alpha-Gal fluorescence, pH 4.5; activity change, negative = inhibition, % at 105 µM; 230,000 tested, under 10 active; AID 1467; inconclusive = small, poorly fitted or top-dose-only inhibition, or a rising curve; inactive = flat fitted curve, though single readings scatter; no compound was filed as active;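 further: 0% = full activity with enzyme and -100% = basal without enzyme; dose as in the result columns while the protocol names 77 µM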
# Target sequence (P06280 whole entry, looked up): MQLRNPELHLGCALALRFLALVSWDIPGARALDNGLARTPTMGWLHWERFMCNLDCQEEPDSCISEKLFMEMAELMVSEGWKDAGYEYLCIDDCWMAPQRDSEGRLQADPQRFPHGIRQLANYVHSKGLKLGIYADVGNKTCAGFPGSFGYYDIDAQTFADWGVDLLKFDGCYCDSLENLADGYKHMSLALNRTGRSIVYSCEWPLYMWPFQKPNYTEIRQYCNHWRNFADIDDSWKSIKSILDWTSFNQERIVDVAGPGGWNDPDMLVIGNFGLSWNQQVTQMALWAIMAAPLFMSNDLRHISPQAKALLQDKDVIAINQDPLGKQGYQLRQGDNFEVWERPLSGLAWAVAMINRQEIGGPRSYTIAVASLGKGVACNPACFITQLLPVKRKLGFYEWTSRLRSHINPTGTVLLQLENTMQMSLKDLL
# An asterisk follows results filed as active; ? = inconclusive; nt = not tested or not shown; & = joins results of further samples; [ ] = another dose, or the depositor's remark.
Rango release inh	miR-21 FLuc	Rango-impB inh	GLA inh pH 4.5	Compound
-2%	nt	2.1%	nt	COc1cc(C(=O)N2CCN(CC(O)COc3ccccc3)CC2)cc(OC)c1OC (configuration not stated)
3%	-3%	3.0%	2	CCOc1ccc2cc(S(=O)(=O)n3ccnc3C)ccc2c1
15%	nt	0.6%	nt	Cc1cccc(COc2ccccc2C(=O)NC2CCC(O)CC2)c1 (configuration not stated)
0%	nt	1.3%	nt	OC1c2cc(Cl)ccc2-c2c(Cl)cc(Cl)cc21 (configuration not stated)
1%	-9%	-0.4%	0	COC(=O)c1ccc(C(=O)OC)c(NC(=O)COC(=O)CC2CC3CCC2C3)c1 (configuration not stated)
-13%	nt	-1.2%	nt	CCN(CC)S(=O)(=O)c1cc(NC(=O)c2ccc3c(c2)NC(=O)C(C)S3)ccc1C (configuration not stated)
-11%	-1%	2.8%	nt	CC(=O)C1=C(O)C(=O)N(c2ccc(O)cc2)C1c1ccccc1F (configuration not stated)
-10%	-7%	0.2%	-4	CCCOc1cccc(/C=N/NC(=O)c2csc(C)c2C)c1
0%	-31%	-4.3%	2[21.1 µM]	COc1ccc(-n2cnc3cc(C(=O)NCCN4CCOCC4)ccc32)cc1
-8%	nt	2.5%	nt	CCCCn1c(N)c(N(CC)C(=O)c2cccc(OCc3ccccc3)c2)c(=O)[nH]c1=O
5%	-4%	7.3%	3	CS(=O)(=O)Nc1ccccc1C(=O)NCc1ccco1
2%	-1%	1.9%	3	CCCC(C)C(=O)NCc1ccncc1 (configuration not stated)
-4%	-26%	0.4%	2	CC(C)(C)C(=O)Cn1ncc(N2CCOCC2)c(Br)c1=O
8%	-4%	?	nt	Cc1nc(NCC(c2ccccc2)N(C)C)c2c(C)c(C)sc2n1 (configuration not stated)
-9%	0%	3.5%	nt	CCOc1ccc(C(=O)NC(C(=O)NCc2cccnc2)C(C)C)cc1 (configuration not stated)
22%	-13%	0.9%	5	COc1ccc(S(=O)(=O)N2CCCC(C(=O)O)C2)cc1Cl (configuration not stated)
-4%	0%	4.6%	nt	Cc1ccc(CNCCCSc2ncccn2)cc1
-19%	-1%	4.5%	-12	O=C(Nc1ccc(F)cc1)c1sccc1SCc1cccc(C(F)(F)F)c1
-2%	-1%	2.2%	-4	O=c1[nH]c(CN2CCN(S(=O)(=O)c3cccs3)CC2)nc2c(Br)cc(Br)cc12
0%	-1%	5.9%	nt	CCn1cc(C(=O)N[C@H](C(=O)NCCCn2ccnc2)C(C)C)c(=O)c2cc3c(cc21)OCO3
0%	16%	-1.9%	2	COc1cc(CC(=O)OCC(=O)Nc2sccc2C(N)=O)cc(OC)c1OC
4%	0%	0.8%	7	CC(C)(C)NC(=O)NC(=O)COC(=O)COc1ccc2c(c1)CCC2
28%	-6%	4.9%	-3	Cc1cccc(/C=N/n2c(-c3ccncc3)n[nH]c2=S)c1
0%	-10%	1.2%	7	Cc1nn(-c2cc(N3CCCCC3)ccc2[N+](=O)[O-])c(=O)c2ccccc12
0%	0%	-0.4%	nt	COc1ccc(-n2c(-c3ccc(Br)cc3)n[nH]c2=S)cc1

# Three entries from above, with two lines to a compound.
# Every second line gives: Rango release inh | miR-21 FLuc | Rango-impB inh | GLA inh pH 4.5
CC(C)(C)NC(=O)NC(=O)COC(=O)COc1ccc2c(c1)CCC2
  4% | 0% | 0.8% | 7
CCn1cc(C(=O)N[C@H](C(=O)NCCCn2ccnc2)C(C)C)c(=O)c2cc3c(cc21)OCO3
  0% | -1% | 5.9% | nt
CCCOc1cccc(/C=N/NC(=O)c2csc(C)c2C)c1
  -10% | -7% | 0.2% | -4

# Next section.
Rango release inh	miR-21 FLuc	Rango-impB inh	GLA inh pH 4.5	Compound
1%	nt	-1.5%	nt	CC12CCC(C1)C(C)(C)C2NS(=O)(=O)c1ccc(F)cc1 (configuration not stated)
12%	-1%	4.6%	11	COc1ccc(OC)c(NC(=O)C2C3C=CC(C3)C2C(=O)NCc2ccccn2)c1 (configuration not stated)
11%	-8%	-0.8%	nt	COc1cccc(CN2C(=O)C(C)Oc3ccccc32)c1 (configuration not stated)
-11%	nt	-4.7%	nt	O=C(Cn1c(=O)cnc2ccccc21)Nc1cccc(S(=O)(=O)N2CCCCC2)c1
-8%	-9%	-0.8%	0	Cn1c(CN2CCOCC2)nnc1SCC(=O)NCCc1ccccc1
-9%	-20%	-0.4%	nt	O=C(COc1ccccc1Cl)Nc1ccc(NC(=O)c2ccco2)cc1
8%	-5%	-3.9%	-1	CCOC(=O)C1C(=O)CC(C)(O)C(C(=O)OCC)C1c1cc(Br)ccc1OC (configuration not stated)
5%	-4%	3.8%	-18	Cc1ccc(C(=O)Nc2ccc(S(=O)(=O)N3CCOCC3)cc2)cc1
9%	-7%	-1.2%	-8	COCC(=O)N(c1ccc(C(C)C)cc1)C1C=CS(=O)(=O)C1 (configuration not stated)
-10%	nt	-1.1%	nt	O=C(Nc1nnc(C2CC2)s1)c1ccc(Cl)nc1
3%	nt	1.1%	4	CCOC(=O)CN1C(=O)N[C@@H](c2ccco2)C(C(=O)OC)=C1C
8%	0%	?	4	CCc1cccc(N(C(=O)c2csnn2)C(C(=O)NC(C)(C)C)c2ccncc2)c1 (configuration not stated)
2%	3%	0.7%	-7	N#CCSC1=Nc2ccccc2C2=NC(CCC(=O)N3CCN(c4ccccc4)CC3)C(=O)N12 (configuration not stated)
5%	0%	0.5%	-24	CC(C)(C)S(=O)(=O)c1nc2ccccc2s1
-2%	-14%	5.1%	-3	Cc1ccc(-c2cnc(SCC(=O)N3CCCc4ccccc43)n2C)cc1
-12%	-5%	-3.4%	-4	O=C(COC(=O)c1cccc(S(=O)(=O)N2CCc3ccccc32)c1)Nc1ncc(C(F)(F)F)cc1Cl
16%	-12%	2.8%	3	COc1ccc(CNc2c(CO)cnc3c2cnn3C)cc1
-3%	-3%	-2.4%	0	O=c1[nH]cc(COCc2ccccc2)c(=O)[nH]1
-1%	19%	5.3%	-1	O=C(Nc1nc(-c2ccc(S(=O)(=O)N3CCCC3)cc2)cs1)c1ccco1
1%	1%	0.3%	0	CC(C)Oc1ccc(/C=C(/NC(=O)c2ccccc2)C(=O)NCCC(=O)O)cc1
65%	-4%	5.3%	5	O=C1c2ccccc2N(Cc2ccc(Cl)cc2)C2=NCCN12
41%	-4%	0.0%	3	CCN(CC)C(=O)c1cccc2c1C(=O)c1ccccc1-2
-14%	-23%	2.2%	-3	O=C(Nc1nccs1)c1c(O)c2c([nH]c1=O)CCCC2
-20%	-4%	-3.9%	2	COc1ccc([C@@H]2C=C(C(=O)O)O[C@H](OCCCCO)C2)cc1
8%	nt	-1.1%	nt	COc1ccc(C(=O)NCC(c2ccco2)N2CCCCC2)cc1S(=O)(=O)Nc1ccc(C)cc1 (configuration not stated)
7%	-4%	-0.8%	7	Cc1nn(-c2ccccc2)c(N2CCCC2)c1/C=C1\N=C(c2ccc(F)cc2)OC1=O
4%	nt	8.1%	nt	Cc1cc(S(=O)(=O)Nc2ccc(C(=O)NCCCn3ccnc3)cc2)ccc1F
5%	0%	-3.1%	-3	Cc1ccc(CNC(=O)COC(=O)CCC(=O)c2cccs2)cc1
0%	-14%&-5%	-6.5%	nt	CC1(C)Cc2c(c(N3CCOCC3)nc3sc(C(=O)Nc4ccc(Cl)cc4)c(N)c23)CO1
10%	-5%	0.0%	6	Cc1nnc(SCc2cnc(-c3ccccc3)o2)[nH]c1=O
13%	-1%	-0.5%	-2	C=CCNC(=O)c1ccncc1
12%	-2%	-0.3%	nt	O=C(CCS(=O)(=O)c1ccc2c(c1)NC(=O)CO2)NCCc1ccc(Cl)cc1
?	0%	?	-3	CCOC1=C/C(=C/c2c(N)n3nc(S(=O)(=O)CC)sc3nc2=O)C=CC1=O
13%	nt	0.3%	nt	CSCCC(NC(=O)c1ccc([N+](=O)[O-])cc1Cl)C(=O)OCC(=O)NC(=O)CN1CCCC1=O (configuration not stated)
35%	nt	-0.2%	nt	CCc1ccc(C(=O)C(C)OC(=O)Cn2cnc3c2c(=O)n(C)c(=O)n3C)cc1 (configuration not stated)
6%	-9%	-1.7%	2	CC1CCN(S(=O)(=O)c2ccc(NC(=O)N3c4ccccc4Sc4ccccc43)cc2)CC1
4%	-43%	1.0%	-7	Cc1cc(C)nc(N/N=C/c2ccccc2OCc2ccc(Cl)cc2)n1
-1%	1%	-2.3%	nt	COC(=O)Cn1cnc2c(nnn2-c2ccc(F)cc2)c1=O
3%	-16%	2.5%	0	CN(C)CCCCOc1ccc(Br)cc1Cl
0%	-1%	1.5%	10	Cc1oc(C(C)(C)C)c(CN2CCOCC2)c1C(=O)O
0%	-8%	-3.7%	-17	Cc1ccc(-c2nc3ccccc3c(=O)n2NC(=O)c2cccs2)cc1
-29%	-1%	?	-10	CC(=O)Nc1ccc(Nc2nc3ccccc3nc2NS(=O)(=O)c2ccccc2)cc1
-14%	4%	-1.2%	-5	COc1ccccc1-n1c(SCC(=O)Nc2ccc(F)cc2)nc2c(c1=O)SCC2
8%	-7%	1.2%	4	S=C1CCC(c2ccc(Cl)cc2)=NN1c1ccccc1
-4%	-5%	-6.0%	-18	CCOC(=O)C1(CC2CCCCO2)CCN(Cc2nc3ccccc3nc2C)CC1 (configuration not stated)
-7%	4%	-4.2%	-2	COC(=O)Nc1ccc(S(=O)(=O)NCc2ccccn2)cc1
-19%	1%	-0.2%	nt	CC1CC(C)CN(C(=O)CN(C)S(=O)(=O)c2ccc3c(c2)c(=O)n(C)c(=O)n3C)C1 (configuration not stated)
37%	13%	0.6%	-10	C[C@H](NC(=O)c1nc[nH]c1C(=O)NC(c1ccccc1)c1ccccc1)C(=O)OCc1ccccc1
-12%	nt	2.0%	nt	O=C(O)c1ccc(-c2noc(-c3cccc(Cl)c3)n2)cc1
2%	-4%	3.6%	nt	CCCCN1C2CCCC1CC(NC(=O)c1ccccc1Cl)C2 (configuration not stated)

# Some of the entries so far, with two lines to a compound:
# Order of values: Rango release inh | miR-21 FLuc | Rango-impB inh | GLA inh pH 4.5
COc1ccccc1-n1c(SCC(=O)Nc2ccc(F)cc2)nc2c(c1=O)SCC2
  -14% | 4% | -1.2% | -5
COc1cc(CC(=O)OCC(=O)Nc2sccc2C(N)=O)cc(OC)c1OC
  0% | 16% | -1.9% | 2
CC(C)Oc1ccc(/C=C(/NC(=O)c2ccccc2)C(=O)NCCC(=O)O)cc1
  1% | 1% | 0.3% | 0
O=C(CCS(=O)(=O)c1ccc2c(c1)NC(=O)CO2)NCCc1ccc(Cl)cc1
  12% | -2% | -0.3% | nt
O=C(Nc1nccs1)c1c(O)c2c([nH]c1=O)CCCC2
  -14% | -23% | 2.2% | -3

# The listing continues.
Rango release inh	miR-21 FLuc	Rango-impB inh	GLA inh pH 4.5	Compound
18%	3%	2.2%	-5	CCCOc1ccc(CCC(=O)N/N=C/c2ccco2)cc1
2%	6%	-4.3%	-6	COc1ccc(N(CC(=O)N2CCN(c3cccc(C)c3)C(C)C2)S(=O)(=O)c2c(C)n[nH]c2C)cc1 (configuration not stated)
1%	-3%	0.3%	-8	COc1ccccc1N1C(=O)CC1(C#N)c1ccc(OCc2ccccc2)cc1 (configuration not stated)
8%	nt	5.0%	nt	O=C(COC(=O)c1ccc[nH]c1=O)NCC12CC3CC(CC(C3)C1)C2
11%	nt	1.2%	nt	COC(=O)CN1C(=O)[C@H]2[C@@H](/C=C/c3ccccc3)N3C(=O)CN(Cc4ccc(-c5ccccc5)cc4)C(=O)[C@@]3(C)[C@H]2C1=O
-4%	2%	-2.9%	nt	O=C(CCC(=O)n1ncc2ccccc21)NCc1ccc(F)cc1
-11%	1%	1.1%	0	O=C(CCSCc1ccccc1F)NCc1cccnc1
-1%	10%	-0.8%	1	CCCCNC(=O)c1ccc(N2CCOCC2)c(NS(=O)(=O)c2ccc(OC)cc2)c1
-3%	5%	-0.1%	8	COc1ccc(S(=O)(=O)N[C@@H](Cc2ccccc2)C(=O)N2CC[C@@]3(O)CCCC[C@H]3C2)cc1
-8%	-1%	0.7%	nt	COc1ccc(NS(=O)(=O)c2cc(N)ccc2N2CCOCC2)cc1
4%	-1%	-3.2%	nt	Cc1ccc(-n2ncc3c2CC(C)(C)CC3NC(=O)CCc2cnn(C)c2)cc1 (configuration not stated)
0%	0%	0.1%	nt	CCCCCCC(O)(CCN1CCCCC1)c1ccccc1 (configuration not stated)

# Compound activity (PubChem BioAssay)

# The list is partial (hit frequency here may not be typical).
